Screening results as filed in PubChem BioAssay.
BJeLR viability: MLPCN primary cell-based screen for lethality selective to Ras in HRASV12 cells; 300,000 tested, 0.17% active; BJeLR (HRASV12) viability, CellTiter-Glo ATP luminescence, 48 h; reference of the scale not given here; inhibition, % (no concentration beside the values); AID 1554, 2009;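 active means replicate mean above 50%; inconclusive means above 50% but judged a plate artefact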;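 further: 50 nL library stock added to about 25 µL; numbers are from one replicate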
PrP UTR inh: inhibition of PrP 5' UTR reporter expression | cell-based PrP 5' UTR mRNA reporter, plate reader | inhibition, % (no concentration beside the values) | 340,000 tested, 0.35% active | AID 488862, 2010;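 active means every replicate at 50% or more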;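 further: 0 = median of the neutral control wells; tested in H4 reporter cells; numbers are from one replicate; inactives centre near -14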
Mtb hypoxia rep: PubChem AID 1159583; 300,000 tested, 0.1% active; fluorescence inhibition, % (no concentration beside the values); M. tuberculosis hypoxia-regulated fluorescent reporter, fluorescence;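 active means 35 to 45% if threefold the growth effect, above 45% if 1.5-fold the growth effect; inactive means the rest, general growth blockers included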;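 further: wells of about 50 µL received 100 nL stock; 0% = vehicle wells and 100% = reference inhibitor wells; whole bacteria with a GFP reporter of the hypoxia response; strong numbers were not always called active; many hits fall short of the cut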
Autofluor counter: counter-screen for toxin protease inhibitors: compound fluorescence; compound autofluorescence counterscreen, microsphere flow cytometry; active compounds read high; fluorescence intensity (test concentration not listed); 360,000 tested, 3.1% active;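 active means at least 3 SD above the mean of all compounds, about 16000 in these data; inconclusive means too few beads counted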;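 further: 100 nL of 1 mM stock went into each well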
RN4220 kill: growth inhibition of S. aureus RN4220, primary screen, OD600; 16 h; inhibition, % (test concentration not listed); 330,000 tested, 0.33% active;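 active means z-score of -3 or lower and OD600 up to 0.18 on both plates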;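 further: plate controls were untreated cells for no effect and reference antibiotic for full effect; stock transfer was 100 nL into about 80 µL; one replicate is shown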
Sa ugtP lethal: growth inhibition of ugtP-null S. aureus, primary screen, RN4220 ugtP deletion, OD600; 16 h; some inactives read as strong as hits; growth inhibition, % (concentration not given with the values); 330,000 tested, 0.54% active; AID 1259309, 2017;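 active means z-score under -3 and OD600 up to 0.15 on both plates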;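 further: plate controls were untreated wells for no effect and antibiotic for full effect; wells of about 80 µL received 100 nL stock; the first replicate is given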
Mtb hypoxia rep growth: also measured in Mtb hypoxia rep; calls as there; growth inhibition, %; measured here: M. tuberculosis growth (absorbance);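 0% = vehicle and 100% = reference antibiotic; read after six days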
* marks the source's active call; other numbers are inactive results; ? = inconclusive; . = not tested or not shown.

canonical_smiles,Mtb hypoxia rep growth,Autofluor counter,Mtb hypoxia rep,BJeLR viability,PrP UTR inh,Sa ugtP lethal,RN4220 kill
CCCCNC(=O)N(O)C1N(/N=C/c2cccnc2)C(=S)SC1(C)C (stereo not given),.,5507,.,0,-16,.,.
Cc1ccc(C2=[N+]([O-])C(C)N(O)C2(C)C)o1 (stereo not given),.,2541,.,-13,-17,1,0.9
Cc1cc(S(=O)(=O)N2c3ccc(F)cc3CCC2C)ccc1-n1cnnn1 (stereo not given),-6,3821,-5,-11,-20,-2,2.9
Nc1ccnn1Cc1ccncc1,9,3300,16,3,-17,3,3.0
CCCCCN(C(=O)CCC(=O)OCC(=O)NCc1cccc(OC)c1)c1c(N)n(CCCC)c(=O)[nH]c1=O,0,5809,-3,-9,-16,-1,1.1
COc1ccc(N2CCN(S(=O)(=O)c3cnc[nH]3)CC2)cc1,-1,5800,16,4,-9,5,4.3
COC(=O)CN1C2=NCCCN2c2ccccc21,5,4467,8,1,-37,8,1.5
CCN(CC)C1CCN(C(=O)c2ccc(OC3CCN(Cc4ccccn4)CC3)cc2)C1 (stereo not given),-4,4326,6,4,8,9,4.0
CC(C)C[C@H](NC(=O)OC(C)(C)C)C(=O)NN=CC1=Cc2ccccc2OC1C (stereo not given in full),-3,.,-1,.,.,-31,-8.9
Cc1cc(C)cc(NC(=O)CSc2nc3[nH]ncc3c(=O)[nH]2)c1,-10,2561,7,-9,-20,0,3.6
COc1cc(C(=O)NCc2ccco2)cc(OC)c1OC,2,3546,2,-4,-24,0,3.4
Cc1ccsc1C(=O)C1CCCN(CCO)C1 (stereo not given),5,4196,14,-19,-3,12,7.7
Cc1cccc(C)c1NC(=O)CNC(=O)CCCc1c[nH]c2ccccc12,-10,?,5,13,-25,0,-0.5
O=C(CCn1nnc2ccccc2c1=O)N[C@@H](Cc1c[nH]c2ccccc12)C(=O)O,6,4794,-4,7,-31,18,3.2
COc1ccc(C2OC(=O)CC2C(=O)NC2CCCCCC2)cc1OC (stereo not given),0,22084*,-2,-1,-26,6,1.9
CCCC1Cc2c(sc3nc(SC)nc(N)c23)CO1 (stereo not given),.,2731,.,.,4,1,-0.9
CN(C(=O)CSc1n[nH]c(-c2cccs2)n1)C1CCS(=O)(=O)C1 (stereo not given),-7,6921,-10,3,-44,3,-3.0
COc1ccc(C(=O)NNC(=O)c2ccc(S(=O)(=O)N3CCCCC3)cc2)cc1,-3,3465,-5,-3,1,-11,0.0
CC(NS(=O)(=O)c1cccc(C(=O)NCc2ccncc2)c1)c1ccccc1 (stereo not given),7,3649,-5,.,-5,1,0.0
COC(=O)c1ccc(CSc2nc3ccc(C)cc3[nH]2)o1,.,2379,.,4,-17,2,3.3
CN1CCN(c2ccc(Cl)cc2NS(=O)(=O)c2ccccc2Cl)CC1,8,3499,10,6,-14,5,1.3
C/C(CC(=O)Nc1ccc(Cl)c(Cl)c1)=N\NC(=O)Cc1ccccc1,.,2178,.,-3,-18,.,.
Cn1c2ccccc2c2cnn(CC(=O)NCCCN3CCN(c4ccccc4F)CC3)c(=O)c21,2,4804,-1,-2,-4,9,1.5
Cc1cc(NC(=O)CSc2ccc(-c3ccc4c(c3)OCO4)nn2)no1,5,.,14,-1,.,3,0.0
CN(C(=O)c1cccc(NC(=O)Cc2ccc(NC(=O)C3CCN(C(=O)C4CCCC4)CC3)cc2)c1)C1CCCCC1,2,3310,-9,.,-7,1,4.2
CC(=O)Nc1ccc(OC(=O)c2ccc(Cl)cc2)cc1,5,9869,12,2,3,9,3.9
COCCOC(=O)c1c(C)n(C)c2ccc(OC(=O)c3cccs3)cc12,1,16814*,6,.,-17,5,-1.2
COC(=O)c1ccc(N2CCN(c3ccccc3)CC2)nc1,5,3133,-3,1,-44,19,4.7
CC(Cl)=CCC1(CN2CCCC2=O)C(=O)NC(=O)NC1=O,4,.,8,.,.,-1,1.8
Cc1ccsc1C=NNC(=O)c1ccc2ccccc2c1,-13,.,-11,.,.,-9,-0.2
COc1ccc(NC(=O)CSc2c(C)n[nH]c2C)cc1,3,8968,5,5,-5,9,1.1
CCNC(=O)CC1C(=O)N(c2ccccc2)C(=O)N1CCOC (stereo not given),5,3671,-1,-11,-20,10,-0.9
Cc1ccc(/C=C2\C(=O)NC(=O)N(CCc3ccc(F)cc3)C2=O)o1,.,2639,.,8,-19,.,.
CC(C)(C)c1ccc(OC(=O)c2ccccc2)cc1,-2,3140,-3,10,-36,22,3.3
COc1ccc(S(=O)(=O)N(C)c2ccc(C(=O)N3CCC(C(N)=O)CC3)cc2)cc1,9,2913,2,-5,-9,-1,2.9
O=C(CSc1nnc2c(n1)[nH]c1ccccc12)Nc1ccc2c(c1)OCO2,5,21923*,-6,22,-17,-11,0.5
c1ccc(Oc2ccc(-c3ccnc4nc(N5CCN(c6ccccc6)CC5)nn34)cc2)cc1,5,9008,3,-11,-54,-35,2.2
Cc1ccc(NC(=O)Cn2nc(-c3ccccc3Cl)ccc2=O)c(Br)c1,18,4746,1,-2,-8,-1,2.0
CC(=O)c1ccc(NC(=S)NCCc2ccc(S(N)(=O)=O)cc2)cc1,.,4118,.,-40,-3,.,.
CC1CCCN(Cc2nc(Cc3ccccc3Cl)no2)C1 (stereo not given),1,4006,2,1,-36,21,8.5
CCOc1ccccc1N1CC(C(=O)Nc2ccc3c(c2)OCCO3)CC1=O (stereo not given),-5,4470,-3,-4,-8,4,6.2
COC(OC)c1ccnc(-c2ccc(OC(C)=O)cc2)n1,5,5338,13,1,-18,2,8.4
CC(CN=[N+]=[N-])CN1CCC(O)CCC1=O (stereo not given),10,.,0,.,.,2,5.0
O=C(CCNC(=O)c1ccc(Br)cc1)NCc1ccncc1,-6,.,-1,8,-18,8,3.0
O=C(NCc1n[nH]c(=S)n1-c1ccccc1)c1cccs1,8,4952,3,3,-18,1,2.0
COCCn1nnnc1C(c1cc2cccc(C)c2[nH]c1=O)N1CCN(c2ccccc2F)CC1 (stereo not given),.,4862,.,-3,-4,1,3.0
COC(=O)c1cc(OC)c(OC)cc1NC(=O)c1cnccn1,8,.,6,3,.,2,4.8
Cc1cc(C(=O)CCl)c(C)n1CCc1ccccc1,11,.,20,5,.,12,13
Cc1ccccc1-n1c(C)nnc1SCc1cc(=O)oc2ccc3ccccc3c12,-4,10343,1,-9,-17,-5,10
NC(=O)C1CC2(CC(c3cccc(NC(=O)C4CCC(=O)N4)c3)=NO2)CN1C(=O)COc1ccc(Cl)cc1 (stereo not given),4,.,5,.,.,13,7.3
Cc1cc(C)nc(NC(=S)Nc2cccc(Cl)c2Cl)c1,2,4392,2,4,-14,-2,-1.4
O=C(COC(=O)c1ccc(O)cc1O)Nc1ncc(Cl)cc1Cl,2,?,-12,-2,-10,-13,1.8
O=C(COC(=O)CNC(=O)C1CCCCC1)NCc1ccc(Cl)cc1,1,.,10,.,-20,0,1.1
CC(C)N1CCc2c(sc(NC(=O)c3ccc4ccccc4c3)c2C(N)=O)C1,16,6180,9,-12,-5,10,-8.7
Cc1ccccc1Cn1c2ccccc2c2cnn(CC(=O)NCc3ccco3)c(=O)c21,15,3481,17,-12,-9,9,1.1
COc1ccc([N+](=O)[O-])cc1NC(=O)COC(=O)/C=C/c1ccco1,3,2045,7,-11,-42,2,0.7
Cn1c(=O)c2c(ncn2CC(=O)OCC(=O)c2ccc(Cl)cc2)n(C)c1=O,.,5100,.,-13,-21,.,.
O=C(COC(=O)C1(c2ccccc2)CC1)NNC(=O)c1ccccc1F,2,5365,6,-4,-8,3,2.2
COc1ccc(C2c3sc(=O)[nH]c3SC3C(=O)N(c4ccccc4)C(=O)C32)cc1 (stereo not given),.,4589,.,0,-9,4,1.7
COC(=O)c1cc(NS(=O)(=O)c2ccc3c(c2)CCC(=O)N3)cc(C(=O)OC)c1,8,8406,5,7,-10,9,2.8

Going on with the list:
canonical_smiles,Mtb hypoxia rep growth,Autofluor counter,Mtb hypoxia rep,BJeLR viability,PrP UTR inh,Sa ugtP lethal,RN4220 kill
O=C(c1cc(C2CC2)nn1-c1ccccc1)N1CCN(Cc2c(F)cccc2Cl)CC1,7,2858,22,.,-22,5,3.8
O=C(NCc1ccc(Cl)cc1)c1cc(S(=O)(=O)N2CCCCC2)c[nH]1,1,5850,7,15,2,3,1.0
NS(=O)(=O)c1ccc(N2CCNCC2)cc1,5,3328,-11,6,-1,-4,-1.0
COc1ccc(N2C(=O)C(CN3CCCCC3)C2c2ccccc2)cc1 (stereo not given),6,4760,15,5,-14,-1,4.6
COC(=O)c1c(NC(=O)CN2CCC3(O)CCCCC3C2c2ccc(OC)cc2OC)sc(C)c1C (stereo not given),7,2551,-4,-6,-15,-9,5.9
O=c1c([N+](=O)[O-])c(NCCN2CCCCCC2)c2ccccc2n1-c1ccccc1,12,2741,-4,-4,-2,-1,0.7
CCOC(=O)c1c(NC(=O)CC)sc2c1CCN(Cc1ccccc1)C2,2,6675,-3,11,-8,17,13
Cc1cc(C)cc(C(=O)Nc2ccc3[nH]c(=O)[nH]c3c2)c1,6,3866,6,3,-41,5,1.6
C[C@H](CO)N1C[C@H](C)[C@H](CN(C)S(C)(=O)=O)Oc2c(cccc2N(C)C)C1=O,13,3102,7,.,-18,4,-8.8
O=C(NCCS(=O)(=O)N1CCN(c2ccccc2)CC1)c1ccc(Br)o1,14,5860,-3,4,1,0,1.2
CCOC(=O)c1sc2nc(C3CC3)cc(-c3ccc(F)cc3)c2c1N,5,8804,8,9,-10,3,6.2
C=C1CCN(C(C(=O)OC)C(C)C)S(=O)(=O)c2ccccc21 (stereo not given),9,3319,8,-2,-13,27,10
COc1ccc(Cl)cc1-c1nc(N)nc(N(C)C)n1,3,1997,8,2,-10,4,3.8
CC1(C)Cc2c(c(N3CCOCC3)nc3sc4c(NN)ncnc4c23)CS1,9,3985,9,2,7,8,5.1
COC(=O)c1[nH]c2ccc(C)cc2c1NC(=O)C1=COCCO1,.,3712,.,-5,-13,2,1.3
O=C(Nc1cccs1)Nc1c(F)cc(F)cc1Br,4,2008,-4,-6,-28,7,8.1
C=C(C)CNC(=O)c1ccc(OC2CCN(S(=O)(=O)N(C)C)CC2)cc1,3,4445,2,10,-12,6,4.7
CCN1C(=O)c2ccccc2Sc2ccc(C(=O)NCCN3CCOCC3)cc21,-3,6005,1,4,-15,-8,3.0
COC(=O)c1ccn(Cc2ccccc2Cl)n1,1,4537,2,0,-27,-3,1.6
Cc1sc2ncn(CC(=O)N3CCC4(CC3)OCCO4)c(=O)c2c1C,7,2887,2,-6,-12,-8,1.1
O=C(CCC(=O)N1CCOCC1)NCc1cccc(C(F)(F)F)c1,12,3821,3,.,-6,0,-0.9
Cc1ccc(NC(=O)COC(=O)CSC(=S)N2CCOCC2)cc1C,12,4325,11,-4,-18,-3,4.2
O=C(c1cc(S(=O)(=O)N2CCCCC2)ccc1N1CCOCC1)N1CCN(Cc2ccccc2)CC1,-3,3610,2,-1,-52,6,3.7

Entries of single compounds as entered above. Screens in order: Mtb hypoxia rep growth	Autofluor counter	Mtb hypoxia rep	BJeLR viability	PrP UTR inh	Sa ugtP lethal	RN4220 kill
Cc1ccsc1C=NNC(=O)c1ccc2ccccc2c1 reads -13	.	-11	.	.	-9	-0.2
C[C@H](CO)N1C[C@H](C)[C@H](CN(C)S(C)(=O)=O)Oc2c(cccc2N(C)C)C1=O reads 13	3102	7	.	-18	4	-8.8
Cc1ccc(NC(=O)Cn2nc(-c3ccccc3Cl)ccc2=O)c(Br)c1 reads 18	4746	1	-2	-8	-1	2.0
CCOC(=O)c1c(NC(=O)CC)sc2c1CCN(Cc1ccccc1)C2 reads 2	6675	-3	11	-8	17	13
CCOc1ccccc1N1CC(C(=O)Nc2ccc3c(c2)OCCO3)CC1=O (stereo not given) reads -5	4470	-3	-4	-8	4	6.2
